# Screening results as filed in PubChem BioAssay.
# Insulin prom inh: TRM-6 insulin promoter activity inhibition | TRM-6 cells (human fetal islet line), insulin promoter-eGFP reporter, imaging; reporter expression induced with tamoxifen | inhibition, % at 2 µM | 130,000 tested, 0.9% active | AID 1273;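 active = inhibition above the mean plus 3 SD, with well images judged a real hit on visual review, cut at about 60% in these data, passing the limit was not always enough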
# HSV replic up: increases HSV replication in cells; HSV replication augmentation in cells, fold increase; maximum fold increase; 220,000 tested, 0.005% active;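 active = peak rise of 1.5-fold or more in the series; tested in PC3 cells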;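 note: first round at 10 µM; read as green reporter fluorescence; hits show the peak of a series up to 25 µM; 1 = signal of infected wells without compound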
# RGS16-Gao: RGS16-Galphao interaction regulator (human). AID 1441. bead-based flow cytometry RGS16-Galphao binding, fluorescence; actives lie on both sides. binding response (% of control), % at 10 µM. 220,000 tested, 0.38% active. O15492+P09471;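 active = below 25% or above 175%, edge rows of some plates excepted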;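 note: Galphao activated by GDP with aluminum fluoride before binding; 100% = wells without compound and 0% = beads without RGS; some results beyond the cut were filed as inactive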
# Target sequence (O15492 whole entry, looked up): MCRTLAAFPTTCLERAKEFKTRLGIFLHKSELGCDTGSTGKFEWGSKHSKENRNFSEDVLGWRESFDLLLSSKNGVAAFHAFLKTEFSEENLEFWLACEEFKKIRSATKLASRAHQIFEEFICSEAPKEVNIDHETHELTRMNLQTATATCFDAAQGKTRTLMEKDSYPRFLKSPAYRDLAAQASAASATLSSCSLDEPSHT
# Target sequence (P09471 whole entry, looked up): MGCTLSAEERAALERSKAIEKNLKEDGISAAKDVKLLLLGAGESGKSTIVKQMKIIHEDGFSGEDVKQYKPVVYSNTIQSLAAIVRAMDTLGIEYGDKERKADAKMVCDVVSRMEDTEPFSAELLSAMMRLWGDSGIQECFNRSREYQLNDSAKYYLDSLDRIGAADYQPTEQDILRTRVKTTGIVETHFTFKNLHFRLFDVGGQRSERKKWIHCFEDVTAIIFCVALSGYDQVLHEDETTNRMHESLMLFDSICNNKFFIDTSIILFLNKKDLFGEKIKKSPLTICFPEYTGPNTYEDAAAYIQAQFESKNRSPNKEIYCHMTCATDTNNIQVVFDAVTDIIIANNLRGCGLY
# PKD1 inh: blocks activity of human protein kinase D1. 200,000 tested, 0.056% active. inhibition, %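 (about 10 µM by stock and volumes)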. PKD1 kinase fluorescence polarization assay. Q15139;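 active = inhibition of 50% or more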;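 note: controls were vehicle for no effect and a reference inhibitor for full effect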
# GALR2 ag: agonists of human galanin receptor 2 (GALR2). O43603. GALR2-expressing cells, agonist activation read-out. activation, %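 (tested at 5 µM)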. 140,000 tested, 0.48% active. AID 803;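 active = above mean plus 3 SD of all compounds, about 5% in these data, not always enough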;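 note: 0% = vehicle buffer wells and 100% = reference agonist at full effect; tested in CHO reporter cells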
# Target sequence (O43603 whole entry, looked up): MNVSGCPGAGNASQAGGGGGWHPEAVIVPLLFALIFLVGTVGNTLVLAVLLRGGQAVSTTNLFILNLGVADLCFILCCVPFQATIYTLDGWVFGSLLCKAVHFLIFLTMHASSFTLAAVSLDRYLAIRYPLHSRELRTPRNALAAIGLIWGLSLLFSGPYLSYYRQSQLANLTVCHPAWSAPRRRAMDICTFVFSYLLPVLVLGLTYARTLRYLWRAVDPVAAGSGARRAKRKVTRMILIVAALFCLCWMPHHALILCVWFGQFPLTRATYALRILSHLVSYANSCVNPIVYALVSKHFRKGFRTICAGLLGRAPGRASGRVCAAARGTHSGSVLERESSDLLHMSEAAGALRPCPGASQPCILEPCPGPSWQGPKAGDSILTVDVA
# Insulin prom inh cell count: further read-out of Insulin prom inh, marked with its call; normalized cell count, %; measured here: cell count, toxicity; reference of the scale not given here;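 cells exposed to compound for 48 h; stained nuclei by imaging scaled within each plate; lower means fewer cells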
# HSV replic up primary fold: second read-out of HSV replic up, no call of its own (marks repeat the call); fold increase; compound at 10 µM; measured here: primary screen fold increase 10 uM; tested in PC3 cells;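 GFP signal in the first replicate; 1 = infected wells without compound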
# * hit, by the source's call; i = inactive; nt = no result given.
Compound,Insulin prom inh,Insulin prom inh cell count,HSV replic up,HSV replic up primary fold,RGS16-Gao,PKD1 inh,GALR2 ag
CCCCC1=CC2=CC(=O)C(C)(OC(=O)CC)C(=O)C2=CN1CCc1c[nH]c2ccccc12 (stereo unspecified),nt,nt,i,1,95,nt,nt
N/C(=N\OC(=O)C12CC3CC(CC(C3)C1)C2)c1ccccn1,-4,91,i,0.9,101,-1,-1.7
Cc1cccc(NC(=O)CSc2nc3[nH]ncc3c(=O)[nH]2)c1C,27,107,i,0.92,105,-4,-0.5
Cc1cc(CNC(=O)Cn2nc(C)c([N+](=O)[O-])c2C)c2ccccc2n1,27,131,i,0.89,97,5,nt
O=[N+]([O-])c1ccc(N2CCNCC2)cc1Sc1nc2ccccc2[nH]1,nt,nt,i,1,139,-8,-1.6
Nc1cnn(C2OC(CO)C(O)C2O)c(=O)n1 (stereo unspecified),nt,nt,i,0.89,99,-5,nt
O=C(NC1CC2CCCC(C1)N2C(=O)N1CCCCC1)C1CCCCC1 (stereo unspecified),-3,135,i,0.91,102,-15,-1.3
CCC(C)NC(=O)COC(=O)Cc1sc(N)nc1-c1ccc(C)cc1 (stereo unspecified),27,160,i,1,104,-1,-1.3
C/C(=N\NC(=O)CCC(=O)O)c1c(-c2ccccc2)c2cc(Br)ccc2[nH]c1=O,nt,nt,i,0.91,90,nt,nt
CCOc1ccc(NC(=S)NNC(=S)Nc2cccc(C(F)(F)F)c2)cc1,nt,nt,i,0.72,99,nt,nt
CNC(=O)c1ccc(OCc2ccccc2)c(OC)c1,31,107,i,1,103,-4,-2.1
CN1CC2=Cc3ccccc3OC23Oc2ccccc2C=C3C1,58,98,i,0.84,106,0,-1.7
CN(C)/C=C1\C(=O)NN=C1c1ccccc1,55,65,i,0.95,104,0,nt
O=C(Nc1cccc(Br)c1)c1ccc2nc(N3C(=O)CCC3=O)sc2c1,17,75,i,0.63,105,-5,-0.8
Cc1ccc(C)c(NC(=O)CN(C)C(=O)[C@@H](NC(N)=O)C(C)C)c1,14,90,i,0.98,103,-5,nt
CSc1nnc(-c2ccccc2Cl)o1,-3,124,i,0.92,100,-3,-1.9
CCOC(=O)N1CCN(C(=O)COc2ccc(S(=O)(=O)NCC(C)C)cc2C)CC1,-25,86,i,0.94,104,-1,-0.3
CCOC(=O)NC1(NCC(C)C)Oc2ccccc2O1,-12,114,i,0.8,107,-10,-1.2
O=C(c1ccccc1)N1CCN(C(=O)c2cc3ccccc3o2)CC1,26,62,i,0.9,104,-4,-2.4
Cc1ccc(NC(=O)C(=O)NC2CCCCC2)cc1,25,123,i,0.84,112,-9,-2.2
Cc1cccc(N/N=C/c2ccc(O)c(O)c2O)c1,nt,nt,i,1.1,102,nt,nt
COC(=O)c1sc(=S)n(Cc2ccccc2)c1C,nt,nt,i,1,103,nt,nt
O=C(OCc1cc2ccccc2[nH]c1=O)c1cccc([N+](=O)[O-])c1,nt,nt,i,0.93,102,nt,nt
CCOC(=O)C1(CCc2ccccc2)CCN(C(=O)CCc2cnn(C)c2)CC1,nt,nt,i,0.92,105,-8,nt
Cc1ccc2[nH]c3c(=O)n(Cc4ccncc4)cnc3c2c1,11,80,i,1.1,47,-6,-0.7
COc1ccc(C(=O)NC(=S)N2CCCCC2)cc1,nt,nt,i,0.94,122,-5,-2.2
CCc1cc(OCCOCCN(C)C)ccc1Cl,-21,60,i,0.89,134,-9,-0.1
Cc1cc(C)nc(SCc2nnc(SCC(=O)OC3CCCCC3)o2)n1,nt,nt,i,0.83,100,17,-0.6
COc1ccc(/C=N/NC(=O)c2ccccc2)cc1CN1CCN(c2ccc(F)cc2)CC1,nt,nt,nt,nt,103,-1,-2.0
CCc1ccc2[nH]c(=O)c(CN(Cc3nnnn3C3CCCC3)C3CCCCC3)cc2c1,0,126,i,0.87,100,7,-0.5

# Next section:
Compound,Insulin prom inh,Insulin prom inh cell count,HSV replic up,HSV replic up primary fold,RGS16-Gao,PKD1 inh,GALR2 ag
CCN(CC)c1ccc(/C=N/NS(=O)(=O)c2cccc([N+](=O)[O-])c2)cc1,nt,nt,i,1.1,61,-4,-1.1
NS(=O)(=O)c1ccc(CCN=Cc2ccccc2O)cc1,14,99,i,0.99,97,3,-2.4
Cc1cnc(C(=O)N2CCCC(C(=O)c3ccc(C(F)(F)F)cc3)C2)cn1 (stereo unspecified),-47,93,i,0.75,101,-9,nt
Cn1c(=O)c2c(nc(CN3CCc4ccccc4C3)n2CCc2ccccc2)n(C)c1=O,-46,74,nt,nt,nt,-4,0.0
CCn1c(SCC(=O)OCc2ccccc2)nnc1-c1ccco1,52,72,i,0.71,100,-14,-2.0
O=C(Nc1ccc(S(=O)(=O)NCc2cccnc2)cc1)c1ccco1,nt,nt,i,0.86,116,1,0.8
O=C(Cc1ccc([N+](=O)[O-])cc1)N1CCCc2ccccc21,50,97,i,0.98,98,-9,nt
CCNC(=O)C1Cc2ccccc2CN1S(=O)(=O)c1ccc(F)cc1 (stereo unspecified),nt,nt,i,1.2,105,nt,nt
CC(C)C(NC(=O)COc1ccccc1)C(=O)O (stereo unspecified),13,122,i,0.82,104,-3,-0.6
CCNC(=O)N(C(=O)NCC)n1c(C)nnc1C,nt,nt,i,0.94,99,1,-0.3
COC(=O)Cn1nc(-c2ccc(C)c(S(=O)(=O)N(C)C)c2)c2ccccc2c1=O,nt,nt,i,1,103,-6,-1.8
COC(=O)CCC(=O)N1CCOCCOCCN(C(=O)CCC(=O)OC)CCOCCOCC1,33,116,i,0.92,51,-9,-0.8
COc1ccc2c(c1)OC/C(=C/c1cccs1)C2=O,nt,nt,i,0.94,95,-11,-0.9
c1ccc(N2CCN(c3ccccc3)C2c2cccnc2)cc1,53,143,i,1,100,-7,-1.8
N#Cc1cc2cc3c(cc2nc1N1CCCCC1)OCCO3,-26,78,i,0.88,103,-4,-0.2
Cc1cc(C)n(-c2ccc(C)c(Cl)c2)n1,53,79,i,0.97,107,-6,-0.7
CSc1nc(-c2ccc(Cl)cc2)nn1C(=O)c1ccco1,83*,168*,i,1.1,103,-10,-0.7
O=C(CSc1ccc2c(c1)OCCO2)Nc1ncc(Cl)cc1Cl,-111,92,i,0.87,103,-8,-1.2
Cc1ccc(C(=O)Nc2ccc3c(c2)nc2n3CCSC2)cc1,nt,nt,i,0.83,90,-5,-2.3
COC(=O)c1ccccc1Oc1ccc(NC(=O)C(C)(C)CCl)cc1,-100,83,i,0.95,101,-7,nt
NNC(=O)CN1C(c2ccccc2Br)=Nc2ccc(Br)cc2C1c1ccccc1 (stereo unspecified),0,111,i,1,99,-9,0.4
O=C(COC(=O)Cc1n[nH]c(=O)c2ccccc12)Nc1cccc(C(F)(F)F)c1,nt,nt,i,0.92,105,2,nt
Clc1ccc2c(NCc3ccccn3)ncnc2c1,71,59,i,1.1,103,-1,-2.2
CC(C)C(NC(=O)OCc1ccccc1)C(=O)OCC(=O)NCc1ccco1 (stereo unspecified),-14,90,i,1,94,2,-0.2
c1ccc(-c2nc(NCc3cccnc3)c3oc4ccccc4c3n2)cc1,-42,90,i,0.95,102,10,-2.3
Brc1ccc(-c2csc(N/N=C/c3cccnc3)n2)cc1,nt,nt,i,0.99,98,-5,nt
Cc1nc(SCC(=O)Nc2cc(C)on2)c2c(=O)n(C)c(=O)n(C)c2n1,nt,nt,i,0.83,57,-17,-0.2
CCOC(=O)c1cnn(-c2cccc(Cl)c2)c1N,nt,nt,i,0.77,98,-10,-1.9
Cc1cc(NC(=O)c2ccccc2F)on1,15,98,i,0.92,105,-7,-1.4
C#CCOCCOCCOCCNc1nc(N2CCN(C(=O)[C@H](Cc3cc4ccccc4[nH]3)n3cc([C@@H](N)C(C)CC)nn3)CC2)nc(N2CCN(C(=O)[C@H](Cc3cc4ccccc4[nH]3)n3cc([C@@H](N)CC(C)C)nn3)CC2)n1 (stereo partly specified),nt,nt,nt,nt,97,-1,nt

# Seven compounds already listed, sorted by the number in HSV replic up primary fold, largest number first.
SMILES | HSV replic up | HSV replic up primary fold | RGS16-Gao | PKD1 inh | GALR2 ag
CCNC(=O)C1Cc2ccccc2CN1S(=O)(=O)c1ccc(F)cc1 (stereo unspecified) | i | 1.2 | 105 | nt | nt
O=[N+]([O-])c1ccc(N2CCNCC2)cc1Sc1nc2ccccc2[nH]1 | i | 1 | 139 | -8 | -1.6
CCOC(=O)N1CCN(C(=O)COc2ccc(S(=O)(=O)NCC(C)C)cc2C)CC1 | i | 0.94 | 104 | -1 | -0.3
Cc1cc(CNC(=O)Cn2nc(C)c([N+](=O)[O-])c2C)c2ccccc2n1 | i | 0.89 | 97 | 5 | nt
CCOC(=O)c1cnn(-c2cccc(Cl)c2)c1N | i | 0.77 | 98 | -10 | -1.9
Cc1cnc(C(=O)N2CCCC(C(=O)c3ccc(C(F)(F)F)cc3)C2)cn1 (stereo unspecified) | i | 0.75 | 101 | -9 | nt
O=C(Nc1cccc(Br)c1)c1ccc2nc(N3C(=O)CCC3=O)sc2c1 | i | 0.63 | 105 | -5 | -0.8

# By substructure, the compounds so far containing two or more sulfur atoms (3)
Compound,Insulin prom inh,Insulin prom inh cell count,HSV replic up,HSV replic up primary fold,RGS16-Gao,PKD1 inh,GALR2 ag
CCOc1ccc(NC(=S)NNC(=S)Nc2cccc(C(F)(F)F)c2)cc1,nt,nt,i,0.72,99,nt,nt
COC(=O)c1sc(=S)n(Cc2ccccc2)c1C,nt,nt,i,1,103,nt,nt
Cc1cc(C)nc(SCc2nnc(SCC(=O)OC3CCCCC3)o2)n1,nt,nt,i,0.83,100,17,-0.6

# The list goes on:
Compound,Insulin prom inh,Insulin prom inh cell count,HSV replic up,HSV replic up primary fold,RGS16-Gao,PKD1 inh,GALR2 ag
CCCc1c(O)nc(SCCN(CCC)CCC)[nH]c1=O,-22,109,i,0.77,106,-5,-1.3
COc1cccc(NC(=O)COC(=O)Cc2ccc(Cl)cc2)c1,nt,nt,i,1,106,2,nt
CC(=O)c1c(NCc2ccccc2)nc(=O)n(-c2ccccc2)c1C,nt,nt,i,0.57,80,-4,-0.7
CCC(Sc1nc2cc3c(cc2c(=O)n1Cc1ccco1)OCO3)C(=O)Nc1ccccc1OC (stereo unspecified),12,162,i,0.96,99,-6,-1.5
Cc1cc(C)c(NC(=O)Cn2cnc3c(oc4ccccc43)c2=O)c(C)c1,38,77,i,0.95,99,-3,nt
CN(C(=O)COC(=O)c1ccc2c(c1)OCCO2)c1ccccc1,18,117,i,1.1,102,2,nt
Cc1nc2ccccn2c1C(=O)N/N=C/c1ccc2c(c1)OCO2,5,62,i,0.87,133,7,-1.4
O=C(N/N=C/c1c[nH]c2ccccc12)C1COc2ccccc2O1 (stereo unspecified),nt,nt,i,0.85,101,-1,0.0
Cc1ccc(Cn2c(SCC(=O)N/N=C/c3ccccc3OCC(=O)O)nc3ccccc32)cc1,nt,nt,i,0.96,99,nt,nt
CCCCOCCCNC(=O)c1ccc2c(c1)OCO2,nt,nt,i,1,99,7,-1.2
COc1cccc(C(=O)Cn2c(N3CCOCC3)nc3c2c(=O)n(C)c(=O)n3C)c1,23,111,i,1,92,-8,-0.8
CCn1c(-c2ccco2)nc2ccccc21,42,181,i,0.96,100,-15,-1.9
Cc1cccc(N2CCN(C(=O)CSc3ccsc3[N+](=O)[O-])CC2C)c1 (stereo unspecified),-24,86,i,0.96,85,-14,-0.8
O=C(O)c1cccc2c1C(=O)c1cccc3snc-2c13,nt,nt,i,1.1,93,nt,nt
O=C1CCNc2cc3ccccc3cc21,-45,150,i,0.89,74,5,-0.2
CCOC(=O)c1[nH]c2ccc(OC)cc2c1NC(=S)N1CCN(c2ccc(F)cc2)CC1,nt,nt,nt,nt,84,-12,-0.1
Cc1c(C=NCCOCc2ccccc2)cnn1C,nt,nt,i,1,98,10,-3.3
Cc1nc2ccccn2c1C(=O)NCc1cccnc1,15,105,i,1.2,104,3,-0.3
O=C1CSC(c2cn(-c3ccccc3)nc2-c2ccc3c(c2)OCCO3)N1CCN1CCOCC1 (stereo unspecified),12,78,i,0.96,103,-11,2.0
COc1ccc(NC(=O)Nc2cnccn2)cc1,nt,nt,i,0.98,97,nt,nt
COc1ccc(C(=O)NNC2=CC(=O)CC(C)(C)C2)cc1OC,0,173,i,0.9,108,3,-1.4
CN(C)S(=O)(=O)c1ccc(C(=O)NCC2(N3CCCCC3)CCCCC2)cc1,-40,108,i,0.84,97,3,nt
CCCC/C(O)=C1\C(=O)CC(C)(C)CC1=Nc1ccc(N)cc1,-58,86,i,1,103,-8,nt
CN(Cc1nc(-c2ccccc2)no1)C1CCOCC1,nt,nt,i,1,96,nt,nt

# No enrichment for hits; overall some 1.1% were active at least once.
